High-throughput results deposited in PubChem BioAssay by ICCB-Longwood Screening Facility, Harvard Medical School.
PV pol inh: poliovirus RdRp elongation inhibitors, primary screen, biochemical, fluorescence polarization, total intensity. poliovirus polymerase elongation; stronger effect = lower value. hit rate 0.66% among 150,000. % elongation, % (compound at 16.7 µg/mL); in the data active = % elongation below about 90%; note: some results filed as inactive read as strong as hits
Target sequence (P03300 1749-2209 limits assumed): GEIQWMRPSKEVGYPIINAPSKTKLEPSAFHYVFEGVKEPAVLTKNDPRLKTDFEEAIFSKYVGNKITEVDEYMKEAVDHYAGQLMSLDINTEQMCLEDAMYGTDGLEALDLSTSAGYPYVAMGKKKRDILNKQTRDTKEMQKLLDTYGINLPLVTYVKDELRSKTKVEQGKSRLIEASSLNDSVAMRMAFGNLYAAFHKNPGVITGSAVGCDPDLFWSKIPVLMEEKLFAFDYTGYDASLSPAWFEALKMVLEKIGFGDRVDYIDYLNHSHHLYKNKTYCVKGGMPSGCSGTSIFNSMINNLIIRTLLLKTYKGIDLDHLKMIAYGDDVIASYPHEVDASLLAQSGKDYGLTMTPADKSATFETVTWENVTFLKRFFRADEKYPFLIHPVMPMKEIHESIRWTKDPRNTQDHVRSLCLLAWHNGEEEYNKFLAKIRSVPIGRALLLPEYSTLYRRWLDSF
PV pol inh intensity: second read-out of PV pol inh, no call of its own (marks repeat the call); % elongation; measured here: total intensity read-out; formula for this scale not given here;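 total fluorescence in place of polarization; lower means less elongation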
Starred values were filed as active, the others as inactive.

SMILES | PV pol inh | PV pol inh intensity
COc1cc(NC(=O)CCNS(=O)(=O)c2ccc3c(c2)CCN3C(=O)C2CC2)cc(OC)c1 | 108.0 | 107.0
COCCCNC(=O)CSc1nc(-c2ccc(OC)c(OC)c2)[nH]c1-c1ccc(F)cc1 | 108.0 | 109.0
Cc1ccc(CNC(=O)CCCn2c(=O)c3ccccc3n(CC(=O)Nc3ccc(C)c(C)c3)c2=O)cc1 | 111.0 | 108.0
Cc1ccc2nc(-c3ccc(Cl)c(NC(=O)COc4ccc([N+](=O)[O-])cc4)c3)oc2c1 | 108.0 | 110.0
CCC(=O)N1CCc2cc(S(=O)(=O)CCC(=O)N3CCN(c4ccc(Cl)cc4)CC3)ccc21 | 112.0 | 113.0
COc1ccc2c(c1)cc1c(=O)n(CC(=O)NCc3ccco3)nc(C)n12 | 105.0 | 110.0
Cc1ccc(S(=O)(=O)N2CCOCC2)cc1C(=O)Nc1ccccc1C(=O)O | 108.0 | 109.0
Cc1ccc2c(c1)N(CC(=O)NCc1ccccc1Br)C(=O)c1cccnc1O2 | 101.0 | 99.0
COc1ccc(C(=O)c2cn(CC(=O)Nc3ccc4c(c3)OCO4)c3ccc(OC)cc3c2=O)cc1 | 107.0 | 106.0
CCc1ccc(NC(=O)c2nn(-c3ccc(OC)cc3)c(=O)c3c2c2ccccc2n3C)cc1 | 105.0 | 108.0
Cc1ccc(OCc2nc(-c3ccc(C(=O)NCc4ccc(OC(C)C)cc4)cc3)oc2C)cc1 | 103.0 | 98.0
COc1cc(-c2cc(OC)c3c(C)oc(C)c3c(=O)c2)ccc1OC(=O)c1ccc(C)cc1 | 117.0 | 127.0
CCCn1cc(S(=O)(=O)c2ccccc2)c(=O)c2cc(F)c(N3CCCC(C)C3)cc21 (stereo not given) | 101.0 | 101.0
COc1ccc(-c2nc(C)c(CCNC(=O)C(=O)Nc3ccccc3OC)s2)cc1 | 101.0 | 111.0
COc1ccc(NC(=O)CSC2=Nc3ccccc3C3=NC(CCC(=O)NCCc4ccccc4)C(=O)N23)c(OC)c1 (stereo not given) | 110.0 | 110.0
O=C(NC1CCCCC1)c1ccc(Cn2c(SCc3ccccc3)nc3cccnc32)cc1 | 111.0 | 116.0
Cc1ccccc1CNC(=O)c1ccc2c(c1)c(C)c(C)n2C | 110.0 | 113.0
CC(=O)c1cc(-c2ccc(F)cc2)n(CC(=O)NC2CCC(C)CC2)c1C (stereo not given) | 110.0 | 95.0
Cc1ccc(NC(=O)CSc2nnc3ccc4ccccc4n23)cc1 | 100.0 | 91.0
CCc1nnc(SCC(=O)N(C)c2ccccc2)c2cc3sccc3n12 | 104.0 | 107.0
CCCn1ccc2c(OCC(=O)Nc3ccc(OC)c(OC)c3)cccc2c1=O | 100.0 | 105.0
Cc1cccc(-c2nc3ccccc3n3c(-c4ccccc4)c4c(=O)n(C)c(=O)n(C)c4c23)c1 | 105.0 | 107.0
Cc1ccc2c(c1)cc(C(=O)NCc1ccccc1C)n2C | 108.0 | 114.0
Cc1cc(-c2ccc(C)c(S(=O)(=O)Nc3ccccn3)c2)on1 | 101.0 | 109.0
O=C(Nc1ccc(F)cc1F)c1cc(-c2ccccc2O)no1 | 101.0 | 104.0
O=C(Nc1ccccc1)c1cnc(N2CCCCC2)c2ccccc12 | 105.0 | 108.0
CCc1cccc(NC(=O)C(Cc2ccccc2)NS(=O)(=O)c2cccs2)c1 (stereo not given) | 106.0 | 105.0
Cc1cc(C)cc(N2C(=O)CS(=O)(=O)C23C(=O)N(Cc2ccc(F)cc2)c2ccc(C)cc23)c1 (stereo not given) | 107.0 | 102.0
CCn1c(=O)cc(SCC(=O)N2CCN(c3ccccc3F)CC2)c2ccccc21 | 107.0 | 111.0
CCCCCNC(=O)C1CCC(Cn2c(=O)c3sccc3n(CC)c2=O)CC1 (stereo not given) | 111.0 | 110.0

For reference, some entries already given.
SMILES | PV pol inh | PV pol inh intensity
COc1ccc(-c2nc(C)c(CCNC(=O)C(=O)Nc3ccccc3OC)s2)cc1 | 101.0 | 111.0
COc1ccc(NC(=O)CSC2=Nc3ccccc3C3=NC(CCC(=O)NCCc4ccccc4)C(=O)N23)c(OC)c1 (stereo not given) | 110.0 | 110.0
O=C(NC1CCCCC1)c1ccc(Cn2c(SCc3ccccc3)nc3cccnc32)cc1 | 111.0 | 116.0
Cc1ccccc1CNC(=O)c1ccc2c(c1)c(C)c(C)n2C | 110.0 | 113.0
CC(=O)c1cc(-c2ccc(F)cc2)n(CC(=O)NC2CCC(C)CC2)c1C (stereo not given) | 110.0 | 95.0

More records follow.
SMILES | PV pol inh | PV pol inh intensity
O=c1ccc2cc(S(=O)(=O)Nc3ccc(OC(F)(F)F)cc3)ccc2[nH]1 | 102.0 | 101.0
Cc1ccccc1Nc1nnc(-c2ccc(C)c(S(=O)(=O)N3CCN(C)CC3)c2)c2ccccc12 | 103.0 | 106.0
Cc1ccc(NC(=O)CCn2nc(-c3ccccc3)c3ccccc3c2=O)c(C)c1 | 108.0 | 108.0
COc1cccc(C2CC(=O)Nc3c2ccc(C)c3C)c1OC (stereo not given) | 109.0 | 113.0
CCCn1c2ccccc2c2cnn(CC(=O)N(CCCOC)Cc3ccco3)c(=O)c21 | 100.0 | 104.0
COc1ccc(NC(=O)CSc2ncc3c(n2)-c2cc(Cl)ccc2N(Cc2ccccc2F)S3(=O)=O)cc1 | 111.0 | 111.0
Cc1nn(-c2ccccc2)c(OC(=O)c2ccc(F)cc2)c1S(=O)(=O)c1ccccc1 | 108.0 | 106.0
Cc1ccc(-n2nc3ccc(NC(=O)COc4ccccc4C)cc3n2)cc1 | 108.0 | 110.0
Cc1nnc(N2CCC(C(=O)NC3CCCCC3)CC2)c2nn(-c3ccc(Cl)cc3)c(C)c12 | 106.0 | 109.0
COc1cc(C)cc2oc(=O)c(CC(=O)NCc3cccc(Cl)c3)c(C)c12 | 108.0 | 113.0
Cc1cc(Cl)ccc1NC(=O)CN1C(=O)CSc2ccc(S(=O)(=O)N(C)C)cc21 | 107.0 | 113.0
Cc1cc(C)c(NC(=O)CSc2nc3ccccc3c3nc(-c4ccccc4)nn23)c(C)c1 | 111.0 | 110.0
CCOc1cc2[nH]c(=O)n(CCCCC(=O)N3CCN(c4ccccc4)CC3)c(=O)c2cc1OCC | 104.0 | 104.0
CCOc1cccc(CC(=O)N2CCc3c([nH]c4ccccc34)C2c2ccc(OC)cc2)c1OCC (stereo not given) | 110.0 | 108.0
CCCS(=O)(=O)NCCc1csc2nc(-c3ccc(OC)cc3)nn12 | 112.0 | 110.0
CCOc1ccccc1CN1C(=O)c2ccccc2C1C(=O)NC1CCCCCC1 (stereo not given) | 104.0 | 106.0
CCCCCNC(=O)C1CCC(Cn2c(=O)c3sccc3n(CC(=O)NCc3cccc(OC)c3OC)c2=O)CC1 (stereo not given) | 105.0 | 108.0
CCn1ccc2cc(S(=O)(=O)N3CCC(C(=O)NCC(C)c4ccccc4)CC3)ccc21 (stereo not given) | 114.0 | 120.0
CC(=O)N1CCc2cc(Br)cc(S(=O)(=O)CCC(=O)N3CCN(c4ccccc4)CC3)c21 | 108.0 | 109.0
CNC(=O)c1c[nH]c2ccc(S(=O)(=O)Nc3cccc(Cl)c3C)cc2c1=O | 111.0 | 112.0
CCc1ccc(CNC(=O)c2ccc(NC(=O)N3CC(C)Sc4ccccc43)cc2)cc1 (stereo not given) | 109.0 | 108.0
CC(=O)c1ccc(S(=O)(=O)N2CCC(Oc3ccc(-n4cnnn4)cc3)CC2)cc1 | 102.0 | 100.0
CCOc1ccc(CNC(=O)CSc2c3c(nc4cc(Cl)ccc24)CCCC3)cc1 | 101.0 | 102.0
COc1ccc(N2CCN(C(=O)C(C)n3nc(C)c4sc5ccccc5c4c3=O)CC2)cc1 (stereo not given) | 106.0 | 102.0
CCOc1ccc(CCNC(=O)CCSCc2cccc(Cl)c2)cc1OCC | 111.0 | 115.0
COc1ccc(CNC(=O)Cn2nnc(-c3ccc(C(F)(F)F)cc3)n2)cc1 | 101.0 | 101.0
O=C(CN1C(=O)CCc2cc(S(=O)(=O)N3CCOCC3)ccc21)Nc1cccc(C(F)(F)F)c1 | 114.0 | 114.0
Cc1ccc(CNC(=O)c2ccc(CS(=O)Cc3cccc(Cl)c3)o2)cc1 (stereo not given) | 102.0 | 104.0
CCCCc1ccc(NC(=O)Cn2nnc3sc4c(c3c2=O)CCC(C)C4)cc1 (stereo not given) | 103.0 | 103.0
COCCCNC(=O)CSc1nc2cc3c(cc2c(=O)n1CCCCCC(=O)NCc1ccc2c(c1)OCO2)OCO3 | 107.0 | 111.0

The listing continues.
SMILES | PV pol inh | PV pol inh intensity
Cc1[nH]c2ccccc2c1C1(O)C(=O)Nc2ccc(Cl)cc21 (stereo not given) | 109.0 | 111.0
Cc1c(CCNC(=O)Cc2ccccc2)sc2nc(-c3ccc(F)cc3)nn12 | 113.0 | 112.0
COc1cc(-c2nc(Cn3nnc(C(=O)Nc4ccc(C)cc4C)c3C)c(C)o2)cc(OC)c1OC | 107.0 | 111.0
CCC(=O)Nc1ccc(-c2nnc3c4ccccc4c(C)nn23)cc1 | 107.0 | 112.0
CCC1CCCCN1C(=O)CSc1nc(-c2ccc(OC)cc2)cc(C(F)(F)F)n1 (stereo not given) | 108.0 | 110.0
CCc1cnc2c(c1SCC(=O)NCc1ccc(F)cc1)c(=O)n(C)c(=O)n2C | 101.0 | 99.0
Cc1ccc2nc(N(Cc3cccnc3)C(=O)C3CCCCC3)sc2c1 | 106.0 | 107.0
Cc1ccc(Cl)cc1-n1ncc2c(Nc3cccc(C)c3C)ncnc21 | 108.0 | 109.0
Cc1ccc2nc(CSc3nnc(NC(=O)c4ccc(C(C)(C)C)cc4)s3)cc(=O)n2c1 | 105.0 | 109.0
CC(C)Oc1ccc(CNC(=O)CCCN2C(=O)CCn3nc(-c4cccn4C)cc32)cc1 | 104.0 | 110.0
CCCCNC(=O)CSc1nc2cc3c(cc2c(=O)n1CCCC(=O)NCc1ccc2c(c1)OCO2)OCO3 | 102.0 | 108.0
O=C(CSc1nccn1C1CCCC1)Nc1ccc(C(F)(F)F)cc1 | 107.0 | 111.0
CC(NC(=O)c1ccc(NC(=O)c2nsc3ccccc23)cc1)c1ccccc1 (stereo not given) | 108.0 | 106.0
O=C(NCCC1=CCCCC1)C1CCN(C(=O)N2CCOc3ccccc32)CC1 | 103.0 | 106.0
Cc1ccccc1OC(=O)CSc1nnc(-c2cccs2)o1 | 105.0 | 108.0
COc1ccc(OC)c(NC(=O)Cn2nc3c(cc2=O)CCCC3)c1 | 103.0 | 107.0
COc1ccc(-c2nc(Cn3c(SCc4ccccc4F)nc4ccncc43)c(C)o2)cc1OC | 106.0 | 107.0
O=C(Cn1c(-c2cccs2)cc2ccccc21)N1CCN(c2ccc(F)cc2)CC1 | 115.0 | 116.0
COc1cc(Cl)c(C)cc1NC(=O)CSc1nc2c(c(=O)[nH]1)CCCC2 | 111.0 | 109.0
CCc1ccccc1N(CC)C(=O)c1cc2c(s1)-c1ccccc1OC2 | 102.0 | 105.0
COc1ccc(NC(=O)CSc2n[nH]c(-c3ccccc3)n2)cc1Cl | 104.0 | 111.0
Cc1c(C(=O)N2CCCCCC2)c(S(=O)(=O)N(Cc2ccccc2)C(C)(C)C)c(C)n1C | 106.0 | 105.0
Cc1c(NC(=O)Nc2ccccc2C(F)(F)F)sc2nc3n(c(=O)c12)CCC(C)CC3 (stereo not given) | 107.0 | 112.0
CCCNC(=O)c1c(NC(=O)c2ccccc2)sc2c1CCC(C(C)(C)C)C2 (stereo not given) | 103.0 | 105.0
Cc1ccc2c(=O)cc(C(=O)Nc3sc4c(c3C(N)=O)CCCC4)oc2c1 | 109.0 | 109.0
COc1ccc(CNc2ncnc3c2c(-c2ccccc2)cn3-c2ccccc2)cc1 | 108.0 | 113.0
CCOC(=O)c1ccc(NC2(c3ccccc3)C(=O)c3ccccc3C2=O)cc1 | 100.0 | 104.0
CCOc1ccc(CC(=O)NCCc2csc3nc(-c4ccccc4F)nn23)cc1 | 104.0 | 102.0
Cc1cc(OCC(=O)NCCc2nc3ccccc3[nH]2)cc(C)c1Cl | 106.0 | 112.0
COc1ccc(CNC(=O)Cn2c(=O)oc3cc(S(=O)(=O)N4CCCCCC4)ccc32)cc1 | 107.0 | 116.0

Some of the entries so far, with values under each structure.
Values in the order – PV pol inh, PV pol inh intensity
COc1ccc(N2CCN(C(=O)C(C)n3nc(C)c4sc5ccccc5c4c3=O)CC2)cc1 (stereo not given)
→ 106.0, 102.0
CCOc1ccc(CCNC(=O)CCSCc2cccc(Cl)c2)cc1OCC
→ 111.0, 115.0
COc1ccc(CNC(=O)Cn2nnc(-c3ccc(C(F)(F)F)cc3)n2)cc1
→ 101.0, 101.0
O=C(CN1C(=O)CCc2cc(S(=O)(=O)N3CCOCC3)ccc21)Nc1cccc(C(F)(F)F)c1
→ 114.0, 114.0

Further records follow:
SMILES | PV pol inh | PV pol inh intensity
CCc1ccccc1NC(=O)CSc1nncn2c1cc1oc(C)cc12 | 104.0 | 106.0
CCN1CCSc2ccc(C(=O)NCc3ccc(OC(C)C)cc3)cc21 | 109.0 | 108.0
O=C1CN(C(=O)c2cccc(Br)c2)C(c2ccccc2)c2cc(Cl)ccc2N1 (stereo not given) | 104.0 | 104.0
FC(F)(F)Oc1ccc2c(c1)NC(c1ccncc1)=NC(c1cccs1)=N2 | 104.0 | 103.0
CCOCCCNC(=O)C1CCN(c2nc3ccc(C)cc3[nH]2)CC1 | 110.0 | 114.0
CCOc1ccc(NC(=O)c2cc(CN3CCCC3)on2)cc1 | 99.0 | 98.0
O=C(Cn1c(=O)oc2cc(S(=O)(=O)N3CCCC3)ccc21)Nc1ccc(F)cc1F | 103.0 | 105.0
COc1ccc(Nc2ccc3cc(S(=O)(=O)N4CCCC4)ccc3n2)cc1Cl | 102.0 | 108.0
O=C(c1ccco1)N1CCN(C(=O)c2cnn(-c3cccc(F)c3)c2C2CCNCC2)CC1 | 108.0 | 103.0
COC(=O)c1cc(C)nc2c1c(=O)nc(SCc1c(C)cc(C)cc1C)n2C1CC1 | 110.0 | 103.0
Cc1ccc(C)c(CN2CCC(CNC(=O)Nc3ccc(Br)cc3F)CC2)c1 | 107.0 | 103.0
COc1cccc(CNC(=O)COc2cc(=O)n(C)c3ccccc23)c1 | 102.0 | 108.0
CCc1cccc(NC(=O)Cn2nc(C)c3sc4ccccc4c3c2=O)c1 | 109.0 | 115.0

The list is partial; the hit share may differ from the screen's.
